# miR-21 reporter – raises the signal of a miR-21 reporter. HeLa miR-21 FLuc reporter, luciferase, 48 h. Potency, µM (highest dose often 38.3 µM), for inactives: top-dose reporter change, positive = more light. 340,000 tested, under 10 active; active = well fitted rising curve with a large enough effect; inconclusive = small, poorly fitted or top-dose-only effect; inactive = no such curve, though single readings can be large or run the other way;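 also: % of control where 0% means no effect; miR-21 action dims this reporter so a rising signal means less miR-21 action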
#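 Using DMEM plus 10% FBS, HeLa miR-21-FLuc cells are incubated with test compounds (final up to about 40uM) for 48 hours; firefly luciferase signal is then imaged following reagent-mediated lysis.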
# Active calls of the source: *; ? = inconclusive. Some of the compounds tested, so the mix of outcomes need not match the whole.
smiles,miR-21 reporter
Cc1ccc(F)cc1S(=O)(=O)N1CCC(c2nc3ccccc3s2)CC1,1.0%
CCOC(=O)CNC(=O)Cn1nc(N2CCN(c3ccccc3)CC2)ccc1=O,4.2%
CCCCN1C(=O)C(O)(c2c(C)[nH]c3ccccc23)c2cc(Br)ccc21 (stereo not drawn),?
CCOc1ccccc1NC(=O)CN1C(=O)CC(c2ccco2)Sc2ccccc21 (stereo not drawn),20.8%
COc1cccc2cc(C(=O)Nc3ccc(C)cc3)c(=O)oc12,-61.1%
O=c1c(-c2cc(-c3ccc(Cl)cc3)nc3c2COc2ccccc2-3)coc2ccccc12,-23.7%
O=c1c2oc3ccccc3c2n(Cc2ccccc2Cl)c(=O)n1Cc1ccc2c(c1)OCO2,0.2%
Cc1ccc(N2CC(NC(=O)C3CC3)CC2=O)cc1C (stereo not drawn),-1.4%
COc1ccc(NC(=O)CSCc2cnn(-c3ccccc3)c2-n2cccc2)cc1,-11.2%
CC(=O)N1CCc2c(sc3c2c(=O)n(Cc2ccccc2)c(=O)n3Cc2cccc(Cl)c2)C1,-3.1%
CCOc1ccc(NS(=O)(=O)c2ccc(-c3cc(C)no3)s2)cc1,3.8%
COc1cccc(C(=O)N2CCN(CCc3ccncc3)CC2)c1,-3.3%
COc1cc(C(CC(=O)Nc2cccc(C(C)=O)c2)N2Cc3ccccc3C2=O)cc(OC)c1OC (stereo not drawn),0.1%
CCOc1cccc(C2c3c(oc4cc(C)c(C)cc4c3=O)C(=O)N2c2nc(C)c(C)s2)c1 (stereo not drawn),-2.3%
CCCn1c(SCC(O)c2cccc(OC)c2)nc2ccccc21 (stereo not drawn),-1.6%
Cc1ccccc1-c1nc(CN2CCC(C(=O)NC(C)C)CC2)c(C)o1,0.9%
CC(C)NC(=O)N1CCC(N2CCN(Cc3ccc(F)cc3)C(=O)C2=O)CC1,-0.1%
CCOc1ccc(CCNC(=O)Cn2nc(-c3ccc(C)cc3)ccc2=O)cc1OCC,-2.0%
Cc1ccc(-n2nc(CO)c(C(=O)NCCCc3ccccc3)n2)cc1,1.8%
Cc1ccc(OC(C)C(=O)N2CCN(CCc3ccncc3)CC2)cc1C (stereo not drawn),1.9%
COc1ccc(NC(=O)c2oc3ccccc3c2NC(=O)Cc2cccs2)cc1,-22.7%
COc1cc(OC)c(OC)cc1CN1CCc2nc(N3CCN(C)CC3)ncc2C1,-0.3%
CCOC(=O)c1c(NC(=O)c2ccc(S(=O)(=O)N(CC(C)C)CC(C)C)cc2)sc2c1CCN(C(=O)OCC)C2,-0.1%
COc1ccc(-c2noc(N3CCC(C(=O)N(C)c4cc(Cl)ccc4OC)CC3)n2)cc1,0.4%
O=C(COc1ccccc1)NCc1ccc2c(c1)CCN2C(=O)c1ccccc1,?
O=C(CN1C(=O)COc2ccc(S(=O)(=O)NC3CCCC3)cc21)NCc1ccc(Cl)cc1,1.7%
CCCCc1ccc(NC(=O)CSc2nc3ccccc3nc2N2CCOCC2)cc1,0.6%
COc1ccccc1N1CCN(C(=O)Cn2cnc3sc(C)c(S(=O)(=O)N4CCC(C)CC4)c3c2=O)CC1,11.2%
COc1cc2c(cc1OC)C(COc1ccc(F)cc1)N(C(=O)c1cccc(F)c1)CC2 (stereo not drawn),0.4%
COc1cccc(CNCCSc2nnnn2-c2ccccc2)c1OC,-9.7%
O=C(Nc1ccc(O)c(-c2nc3ccccc3o2)c1)c1ccc(Br)cc1,1.2%
COC(=O)c1sccc1S(=O)(=O)N(CC(=O)Nc1ccc(C)cc1)c1ccccc1,8.8%
COc1ccc(-c2nnc(SCc3cccc(Cl)c3)o2)cc1,-23.1%
CCc1ccccc1NC(=O)C1(C)Cc2ccccc2C(=O)O1 (stereo not drawn),-2.5%
CC(C)(C)n1cnc2cc(NCc3ccccc3Cl)ccc21,-24.3%
Cc1sc2ncn(CC(=O)N3CCN(c4ccc(F)cc4)CC3)c(=O)c2c1S(=O)(=O)N1CCC(C)CC1,25.0%
COc1cccc(CN(Cc2ccco2)c2cnc(S(C)(=O)=O)nc2C(=O)Nc2cccc(Cl)c2C)c1,4.6%
O=C(Cn1cc(SCc2ccc(C(F)(F)F)cc2)c2ccccc21)N1CCCCCC1,17.0%
Cc1cccc(N2CCN(C(=O)Cn3nc(C)c4sc5ccccc5c4c3=O)CC2)c1C,19.3%
O=C(NCC(c1ccc2c(c1)OCO2)N1CCN(c2ccccc2)CC1)c1ccc(F)c(F)c1 (stereo not drawn),19.8%

# Entries shown so far that contain a Cl atom (8):
smiles,miR-21 reporter
O=c1c(-c2cc(-c3ccc(Cl)cc3)nc3c2COc2ccccc2-3)coc2ccccc12,-23.7%
O=c1c2oc3ccccc3c2n(Cc2ccccc2Cl)c(=O)n1Cc1ccc2c(c1)OCO2,0.2%
CC(=O)N1CCc2c(sc3c2c(=O)n(Cc2ccccc2)c(=O)n3Cc2cccc(Cl)c2)C1,-3.1%
COc1ccc(-c2noc(N3CCC(C(=O)N(C)c4cc(Cl)ccc4OC)CC3)n2)cc1,0.4%
O=C(CN1C(=O)COc2ccc(S(=O)(=O)NC3CCCC3)cc21)NCc1ccc(Cl)cc1,1.7%
COc1ccc(-c2nnc(SCc3cccc(Cl)c3)o2)cc1,-23.1%
CC(C)(C)n1cnc2cc(NCc3ccccc3Cl)ccc21,-24.3%
COc1cccc(CN(Cc2ccco2)c2cnc(S(C)(=O)=O)nc2C(=O)Nc2cccc(Cl)c2C)c1,4.6%

# Going on with the list.
smiles,miR-21 reporter
Cc1cccc(OCC(=O)Nc2ccccc2OCc2cc(=O)n3ccccc3n2)c1,-1.6%
Cc1nn(-c2ccccc2)c2c1N(CC(=O)NCc1ccc(N(C)C)cc1)C(=O)CS2,2.1%
CCOc1ccc(CNC(=O)c2cc(-c3ccc(Cl)s3)nc3ccccc23)cc1,-4.2%
COc1ccc(NC(=O)c2cccc3c(=O)c4c([nH]c23)CCCC4)cc1,0.4%
COc1ccc(C2=C(N3CCN(c4cc(C)ccc4C)CC3)c3ccccc3C2=O)cc1,1.6%
O=C(c1ccccc1F)N1CCC(c2nc3c(nnn3Cc3cccc(F)c3)c(=O)[nH]2)CC1,-3.5%
CCNc1nc(NCc2ccc(F)cc2)c2cnn(C)c2n1,5.9%
COC(=O)c1cc2sc(C)cc2n1Cc1nc(-c2cccc(Br)c2)oc1C,-1.9%
CCN1C(=O)c2ccccc2Sc2ccc(NC(=O)N3CCN(c4cc(C)ccc4C)CC3)cc21,0.0%
COc1ccc(C(=O)NNc2ncnc3c2cnn3-c2ccc(C)cc2C)cc1,-13.9%

# Remaining list, next part.
structure	miR-21 reporter
CCc1ccc2oc(-c3ccc(NC(=O)c4cc(OC)c(OC)c(OC)c4)cc3)nc2c1	-9.0%
CC(=O)c1ccc(NC(=O)CCCSc2nc(-c3ccco3)cc(C(F)(F)F)n2)cc1	10.7%
Cn1c(=O)c2c(nc(Oc3ccccc3Cl)n2Cc2ccc(C#N)cc2)n(C)c1=O	-1.5%
COc1ccc(C(=O)Nc2cccc(-c3nc4cccnc4s3)c2C)c(OC)c1	1.6%
CCOc1ccccc1N(C)C(=O)C1CCCN(c2ncnc3onc(-c4ccc(F)cc4)c23)C1 (stereo not drawn)	-1.6%
CCOc1ccccc1CNC(=O)C1CCN(S(=O)(=O)c2cccc3nonc23)CC1	5.6%
CC1=C(C(=O)Nc2ccc(C)cc2C)C(c2ccc(C(C)C)cc2)n2nc(C(F)(F)F)nc2N1 (stereo not drawn)	1.7%
Cc1cccc(Cn2c(=O)n(-c3ccc(Cl)c(Cl)c3)c(=O)c3c(C)c(C)sc32)c1	1.2%
CCOc1ccc(-c2cc3nc(C4CCN(C(=O)OC(C)(C)C)CC4)c(C(=O)Nc4c(C)cccc4C)cn3n2)cc1	0.5%
CCC(C(=O)Nc1ccc(C(=O)OC)cc1)n1c(=O)c(-c2ccccc2NC(C)=O)nc2ccccc21 (stereo not drawn)	-7.4%
Cc1ccc(COc2ccc3oc(-c4ccccc4)c(C(=O)O)c3c2)cc1	?
CCOc1ccc(NC(=O)CC2C(=O)N(c3cccc(OC)c3)C(=O)N2C2CCCCC2)cc1 (stereo not drawn)	10.1%
O=C(c1cccc(Cl)c1)N1c2ncnn2C2(CCCCC2)[C@@H]2CCCC[C@@H]21	26.4%
CCc1ccc(CNC(=O)CSc2cc(=O)n(CC)c3ccccc23)cc1	20.3%
O=C1N(Cc2ccccc2Cl)c2ccccc2C1(O)c1c[nH]c2ccccc12 (stereo not drawn)	?
Cc1ccc(/C=C/c2nc3ccccc3n2S(=O)(=O)c2cccc(Cl)c2)cc1	?
Cc1nc(N2CCOCC2)c2c(C(=O)N3CCN(c4ccc(Cl)cc4)CC3)c(C)oc2n1	-0.8%
CCNC(=O)c1cnc2sc(N3CCC(C)CC3)nn2c1=O	-12.9%
Cc1cn2c(=O)cc(COC(=O)c3ccccc3F)nc2s1	-0.4%
Cc1ccc(NC(=O)CSc2nc3ccc(Br)cc3[nH]2)c(C)c1	-5.2%
CCCc1cc(=O)[nH]c(SCc2nc(-c3ccccc3)no2)n1	-6.7%
CCOc1ccc(N(CC)S(=O)(=O)N2CCCC(C(=O)Nc3ccc(OC)c(Cl)c3)C2)cc1 (stereo not drawn)	5.8%
CC(=O)N1c2ccc(S(=O)(=O)NCc3ccc(Cl)cc3)cc2CC1C (stereo not drawn)	2.2%
CCCOC(=O)c1ccc(Cn2nnc3sc4c(c3c2=O)CCC(C)C4)cc1 (stereo not drawn)	-13.1%
CN1CCN(c2oc(/C=C/c3ccc(F)cc3)nc2C#N)CC1	-16.3%
Cc1c(C(=O)NCc2ccccc2Br)oc2c1-c1[nH]ncc1CC2	0.8%
Cc1ccc(-n2nnc(-c3nc(-c4cccs4)no3)c2N)cc1C	-16.9%
COc1ccc2c(Sc3ccc(C)cc3)c(C(=O)NC(C)C)[nH]c2c1	25.3%
Cc1cc(C)c(Cn2c(C3CC(=O)N(c4ccc(F)cc4)C3)nc3ccccc32)c(C)c1 (stereo not drawn)	14.0%
CCOc1ccc(-c2cn(-c3ccc(C)cc3)c(SCC(=O)Nc3ccc(C)cc3)n2)cc1	17.2%
COc1ccccc1NC(=O)c1ncn(-c2ccccc2)n1	-58.5%
CC1CCN(S(=O)(=O)c2ccc3c(c2)N(CC(=O)NC(C)(C)C)C(=O)CS3)CC1	27.6%
COc1ccc(N2CCN(S(=O)(=O)c3cc(Br)cc4c3N(C(=O)C3CC3)CC4)CC2)cc1	7.1%
COc1ccc(CCNC(=O)c2cc(=O)c3cc(C)cc(C)c3o2)cc1OC	-4.5%
Cc1ccccc1-c1noc(-c2cc3ccccc3oc2=O)n1	-50.4%
COC(=O)c1cc2sc(Cl)cc2n1Cc1nc(-c2ccccc2C)oc1C	0.2%
COc1cccc(-c2nc(CS(=O)(=O)CC(=O)Nc3c(C)cc(C)cc3C)c(C)o2)c1	2.7%
Cc1ccc(NC(=O)CCn2cnc3onc(-c4ccc(F)cc4)c3c2=O)c(Br)c1	0.5%
COc1ccccc1NC(=O)Cn1c(=O)n(-c2ccc(C)cc2)c(=O)c2c1cnn2C	-0.8%
Cc1cccc(Cn2cccc2CNS(=O)(=O)c2ccc(C)c(C)c2)c1	?
CCc1ccc(NC(=O)CSc2nc(=O)n(Cc3cccnc3)c3c2CCC3)cc1	-0.3%
CC(C)CCNC(=O)c1ccc2c(c1)N(Cc1ccccc1F)C(=O)c1ccccc1S2(=O)=O	-1.2%
Cc1cccc(-c2nnc(SCc3cc(=O)c4cccc(Cl)c4[nH]3)n2C)c1	22.5%
Cc1cc2ccccc2n1CCNC(=O)c1ccccc1F	-10.1%
COC(=O)c1ccc(Cn2c(SCc3ccc(F)cc3)nc3ccncc32)cc1	-0.6%
Cn1cc(S(=O)(=O)c2ccc(Cl)cc2)c(=O)c2cc(F)c(N3CCCCCC3)cc21	3.8%
Cc1cccc(-n2c(=O)c3c4c(sc3n3cnnc23)CCCC4)c1	-14.8%
CCc1ccccc1NC(=O)N1CCN(c2cc(-c3noc(C)n3)ccc2C)CC1	-7.6%
COc1ccc(NC(=O)CCCc2nc(-c3ccco3)no2)c(OC)c1	-1.5%
CC1=C(C(=O)Nc2ccccc2)C(c2ccc(O)cc2)n2nc(SCc3ccccc3)nc2N1 (stereo not drawn)	-7.3%
Cc1cccc(-c2nc(CSc3nncn4c3cc3sccc34)c(C)o2)c1	-1.5%
N#Cc1ccccc1Cn1c(=O)n(CCCC(=O)NCc2ccccc2Cl)c(=O)c2ccccc21	-0.9%
Cc1ccc(SCc2nc(-c3ccc(C(=O)NCCc4ccc(Cl)cc4)cc3)oc2C)cc1	-3.1%
COc1ccc(C2=NS(=O)(=O)N(C)C(C(=O)Nc3ccc(OC(F)(F)F)cc3)=C2)cc1	11.6%
Cc1cccc(NC(=O)C2CCCN(c3nnc(-n4c(C)ccc4C)s3)C2)c1C (stereo not drawn)	6.4%
Cc1ccc2nc3c(c(Nc4ccc(C)c(C)c4)c2c1)CCC3	?
Cc1ccc(NC(=O)Cn2c(=O)n(Cc3nc(C)no3)c(=O)c3ccccc32)c(Cl)c1	0.6%
O=C(Cn1cc(S(=O)(=O)c2ccccc2)c(=O)c2cc(Cl)ccc21)Nc1ccc2c(c1)OCO2	-14.4%
Cc1ccc(Cc2cn3cc(-c4ccc(F)cc4)nc3s2)cc1	-35.3%
Cc1nc(SCc2ccccc2Cl)c(C#N)c(C)c1C	-8.3%

# Carrying on:
structure	miR-21 reporter
Cc1ccc(S(=O)(=O)c2cn(Cc3ccccc3)c3cc(N4CCCC4)c(F)cc3c2=O)cc1	0.1%
CCc1ccc(-n2nc3ccc(NC(=O)COc4ccc(OC)cc4)cc3n2)cc1	-12.0%
Cc1cccc(C)c1NC(=O)Cn1cc(C(=O)c2ccco2)c2ccccc21	-1.4%
Cc1cccn2c(=O)c(/C=C(\C#N)c3nc4ccccc4s3)c(Oc3ccc(Br)cc3)nc12	-5.9%
